# High-throughput results (PubChem BioAssay)
# Menin-MLL FL inh: qHTS Assay for Inhibitors Targeting the Menin-MLL Interaction in MLL Related Leukemias: Competition With Fluorescein Labeled MLL-derived Peptide; 290,000 tested, under 10 active; AID 1766, 2009; Fluorescence polarization, fluorescein-MLL peptide displacement from menin; FP activity change, % at 61.4 µM; inconclusive = falling polarisation curve, or a change in total fluorescence; inactive = total fluorescence flat and polarisation flat or rising; no compound was filed as active; the % refers to the polarisation; negative = inhibition;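 note: % of control where 0% means no effect; inhibitors lower the polarisation; unlabelled MLL peptide was the positive control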
# Sfp PPTase inh: qHTS Assay for Inhibitors of Bacillus subtilis Sfp phosphopantetheinyl transferase (PPTase); Biochemical Sfp PPTase activity, qHTS; 310,000 compounds, 3.5% hits; 4'-phosphopantetheinyl transferase ffp (Bacillus subtilis), Q9F4F7; AID 1490, 2009; Potency, µM, for inactives: max response, negative = inhibition, hits mostly inhibitors; active = well fitted inhibition curve with a large enough effect; inconclusive = small, poorly fitted or top-dose-only effect, or another doubt; inactive = no such curve, though single readings can be large or run the other way;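 note: the enzyme is Sfp with the accession as filed and its product quenches rhodamine fluorescence; potency is the fitted concentration of half-maximal effect; 0% = enzyme reaction without inhibitor and -100% = no enzyme wells; top concentration of the series not given in the record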
#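 Compounds were incubated with enzyme (final 15 nM) for 15 min at room temperature before substrate addition started the reaction. Fluorescence at 525 nm excitation, 598 nm emission was recorded immediately and after 30 minutes.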
# * marks the source's active call; other numbers are inactive results; ? = inconclusive; & = joins results of further samples; ! = a repeat was not active; [ ] = dose if it differs, or a comment. These rows are one share of the data. The share of hits here may be higher or lower than overall.
Compound	Sfp PPTase inh	Menin-MLL FL inh
O=C(CNS(=O)(=O)c1ccc(Br)cc1)OCc1cc(=O)n2cc(Br)ccc2n1	-12.9%	-3.5
COc1cccc([C@@H]2Oc3ccc(Br)cc3C(=O)[C@H]2OC(=O)NCCc2ccc(OC)c(OC)c2)c1	-29.3%	?
COC(=O)CCCC1=CC2=C(c3ccccc3)C(=O)C(C)(OC(=O)C3CCCC3)C(=O)C2=CN1CCCOC(C)C (stereo not given)	-17.4%	-12.2[11.7 µM]
C/C(CCN1CCCCc2nc(C)c(C)cc21)=N\OC[C@@H](O)[C@H]1O[C@@H]2OC(C)(C)O[C@@H]2[C@H]1O	12.9%	1.3
CN1C(=O)COc2ccc(C(=O)c3oc4ccccc4c3-c3cnc4c(c3)COc3ccccc3-4)cc21	5.7%	2.7
O=C(OCc1nc2ccccc2s1)[C@@H]1CCCN1S(=O)(=O)c1ccccc1F	6.5%	0.1
CCC(=O)c1c(O)cc(O)cc1O	-13.7%	-2.6
Cc1ccc2nc(-c3ccccc3)nc(SC(C)C(=O)NCc3cccs3)c2c1 (stereo not given)	9.1%	0.0
OCC1OC(C#Cc2ccccc2)C=CC1OCc1ccccc1 (stereo not given)	-0.7%	-1.4[11.7 µM]
Cc1cc(C)nc(S/C=C/C(=O)c2ccc(F)cc2)n1	-18.9%	19.5
O=C(NC1CCCCC1)NC1CCCCC1	12.9%	-5.6
NC(N)=NCCC[C@H](NC(=O)c1ccccc1)C(=O)Nc1ccc([N+](=O)[O-])cc1	3.8%	1.2
O=C(NCc1ccco1)c1cccn2c(=O)c3cc4ccccc4cc3nc12	?	-14.0
O=C1[C@H]2[C@H]3[C@H](O)[C@H](O)C/C(=N/OCc4ccccc4)[C@H]3CC[C@@H]2C(=O)N1Cc1ccccc1	-7.4%	-1.7[11.7 µM]
Cc1nn(-c2ccccn2)c2c1C(c1c(F)cccc1Cl)C1=C(N2)c2ccccc2C1=O (stereo not given)	-27.3%	5.1
C[C@H]1[C@@H](OC(=O)CCC(=O)O)OC2OC3(C)CC[C@H]4[C@H](C)CC[C@@H]1[C@@]24OO3 (stereo not given in full)	12.9%	-1.3
CC(C)[C@@H](CC(=O)N[C@@H]1CCNC[C@H]1C(=O)N[C@H](CC(=O)N[C@@H](CCC(=O)O)CC(=O)O)Cc1ccccc1)NC(=O)C[C@H](CO)NC(=O)[C@@H]1CCCC[C@H]1N	-20.8%	-0.3
CC(=O)OCC1OC(c2ccc(C(C)=O)cc2)C=CC1OC(C)=O (stereo not given)	5.9%	3.7[11.7 µM]
N#Cc1ccc(CS(=O)(=O)c2nc3ccccc3s2)cc1	14.3%	-1.2
CCC[C@@H]1CC(C(=O)NC(C2O[C@H](SC)C(OP(=O)(O)O)[C@H](O)[C@H]2O)[C@H](C)Cl)N(C)C1 (stereo not given in full)	7.2%	-4.4

# Compound profiles, as listed above:
# `CN1C(=O)COc2ccc(C(=O)c3oc4ccccc4c3-c3cnc4c(c3)COc3ccccc3-4)cc21` is listed as Sfp PPTase inh: 5.7%; Menin-MLL FL inh: 2.7
# `COC(=O)CCCC1=CC2=C(c3ccccc3)C(=O)C(C)(OC(=O)C3CCCC3)C(=O)C2=CN1CCCOC(C)C` (stereo not given) is listed as Sfp PPTase inh: -17.4%; Menin-MLL FL inh: -12.2[11.7 µM]

# More records.
Compound	Sfp PPTase inh	Menin-MLL FL inh
CC/C=C\C/C=C\C/C=C\C/C=C\C/C=C\C/C=C\CCC(=O)O	79.4µM*!	13.9&2.0
CC12CCC=CC1C(c1ccc(F)c(/C=C/c3ccccc3)c1)N(Cc1ccccc1)C2=O (stereo not given)	?	3.1
CC(C)[C@@H](CC(=O)N[C@@H]1CCCC[C@H]1C(=O)N[C@H](CC(=O)N[C@@H](CCC(=O)O)CC(=O)O)Cc1ccccc1)NC(=O)C[C@H](CO)NC(=O)[C@@H]1CCCC[C@H]1N	10.1%	-1.1
COCC1C2CC[C@H]3C(OCc4ccc(OC)cc4)OC[C@]4(C)[C@H]3C2=C(CN4C(=O)OC(C)(C)C)[C@H](C)C1COC (stereo not given in full)	-3.8%	-1.7
C/C(CCN1CCCCc2nc(C)c(C)cc21)=N\O[C@@H](C)CN1CCCCc2nc(C)c(C)cc21	21.4%&11.9%	1.3[11.7 µM]
Clc1ccc2nc(NC3=NCN(CCN4CCOCC4)CN3)nc(-c3ccccc3)c2c1	-17.4%	-1.9
O=c1c2cc(Br)cc(Br)c2oc2nc3n(c(=O)c12)CCCS3	2.6%	0.8
COc1ccc2c(c1)C(=O)[C@@H](OC(=O)NCc1ccc3c(c1)OCO3)[C@H](c1ccc(OC)c(Br)c1)O2	-10.5%&-6.9%	2.0&1.4
OCC1OC(C#Cc2ccccc2)C=CC1O (stereo not given)	15.9%&13.9%&25.8%	2.5&0.9&-2.4[11.7 µM]
CCCNC(=O)N1N=C(c2ccc(N)cc2)c2cc3c(cc2[C@H]1C)OCO3	-9.2%	38.3[activator]
C=CCN(C(C(=O)OC)C(C)C)S(=O)(=O)C=C (stereo not given)	22.6%	?
CCC1=C2CC[C@H]3C(=O)NC(=O)[C@H]3[C@H]2[C@@]2(Cc3ccccc3)C(=NCC3CC3)OC(=O)N2C1=O	3.8%	-3.2
C=CC[C@@H]1C=C[C@H](O/N=C/[C@@H](NS(=O)(=O)c2ccc(C)cc2)[C@H](C)/C=C/CC(=O)OC)[C@@H](CO)O1	7.2%	-2.3
Cn1c(=O)c2c(SCC(=O)NCC3CCCO3)nc(-c3cccs3)nc2n(C)c1=O (stereo not given)	8.6%	0.7
Cc1ccc(C(=O)C(NC(=O)c2ccco2)Nc2sc3c(c2C(N)=O)CCCC3)cc1 (stereo not given)	79.4µM*	5.9
COc1ccc(C2CC(=O)C(C(c3ccc(O)cc3)C3C(=O)CC(c4ccc(OC)cc4)CC3=O)C(=O)C2)cc1 (stereo not given)	35.5µM*	4.2
CC1(C)SC2[C@H](NC(=O)C(NC(=O)N3CCNC3=O)c3ccccc3)C(=O)N2C1C(=O)O (stereo not given in full)	-1.7%	0.5
COc1cccc(C2NC(C(=O)O)CCC2C)c1 (stereo not given)	9.6%	2.3[11.7 µM]
CN1CCN(NC(=O)CN2C(=O)/C(=C/c3ccccc3F)SC2=S)CC1	-28.5%	7.0
C/C=C(/CC[C@@H](C)[C@H]1CCC2C3=CC[C@H]4[C@H](C)[C@@H](O)CC[C@]4(C)C3CC[C@@]21C)C(C)C (stereo not given in full)	-0.7%	-29.2

# Next structures follow:
Compound	Sfp PPTase inh	Menin-MLL FL inh
CC[C@H](C)N	7.4%	1.7
O=C(O)c1cc(-c2c[nH]c3ccccc23)nc2cc3ccccc3cc12	-7.9%	8.7
CCCCC(=O)Nc1cccc(C(C)O)c1 (stereo not given)	10.2%	-1.2
Cc1cc2c(c(=O)o1)[C@@H](O)[C@H]1O[C@@H]1C2=O	5.5%	5.3[11.7 µM]
O=C(/C=C/c1ccco1)c1ccc(O)cc1	22.4µM*	13.9
C#CCOCCOCCOCCNc1nc(N2CCN(C(=O)[C@H](C)n3cc(CCCN=C(N)N)nn3)CC2)nc(N2CCN(C(=O)[C@H](Cc3ccc(O)cc3)n3cc(CCO)nn3)CC2)n1	-15.4%	-1.8
CCCCC/C=C\C=C\[C@@H](O)CCCCCCCC(=O)O	10.8%	-6.6
Cc1ccccc1NC(=O)c1nc2nccc(C)n2n1	-0.7%	4.3
Nc1c(S(=O)(=O)c2cccs2)c2nc3ccccc3nc2n1CCc1ccccc1	14.8%	10.3
Fc1cccc(/C=N\N=C/c2cccc(F)c2)c1	3.3%	-18.7
O=C(/C=C/c1ccc(I)cc1)c1ccc(B(O)O)cc1	16.8%	1.9
CN(C)CCNCCCOc1ccccc1-c1ccccc1	50.1µM*	0.0
CC(=O)OCC(NC(=O)C(COCc1ccccc1)NC(=O)OC(C)(C)C)C1OC(n2ccc(=O)[nH]c2=O)C(OC(C)=O)C1OC(C)=O (stereo not given)	10.2%	0.1
CCC1=C2CC[C@H]3C(=O)NC(=O)[C@H]3[C@H]2[C@@]2(C)C(=NCC(=O)OC)OC(=O)N2C1=O	3.3%	-4.4
COc1ccc([C@]23Cc4cc(C#N)ccc4C(O2)c2c(c4ccc(OC)cc4oc2=O)O3)cc1	5.6%	6.4[11.7 µM]
CO/N=C(\C(=O)N[C@@H]1C(=O)N2C(C(=O)[O-])=C(C[n+]3cccc4c3CCC4)CS[C@H]12)c1csc(N)n1	56.2µM*	-1.4
CC(=O)N[C@@H](CCC(=O)O)C(=O)O	-1.2%	-4.0
Cc1noc(C)c1-c1ccc2ncnc(NCc3cccc(F)c3)c2c1	-26.5%	1.4
CNC(=O)c1cc2c(ccc3ccccc32)oc1=N	7.0%	5.6
C#CCOCCOCCOCCNc1nc(N2CCN(C(=O)[C@H](CCC(=O)O)n3cc(C(N)Cc4ccc(O)cc4)nn3)CC2)nc(N2CCN(C(=O)[C@H](CCCCN)n3cc(C(N)[C@H](C)CC)nn3)CC2)n1 (stereo not given in full)	-9.5%	1.7

# Next part
Compound	Sfp PPTase inh	Menin-MLL FL inh
COCCNC(=O)c1cc(Sc2nnc(C)s2)nc2ccccc12	0.6%	-2.3
C=CCN1CCCC1CNC(=O)c1cc(S(N)(=O)=O)cc(OC)c1OC (stereo not given)	-1.0%	-3.4
Cc1cccc2cc(CN(Cc3ccco3)C(=O)N3CCCC3)c(=O)[nH]c12	3.1%	-0.8
COc1ccc(N(C)C(=S)Oc2ccc(C(=O)Nc3ccccc3)cc2)cc1	0.3%	0.1
CC(=O)c1ccccc1NC(=O)CSc1nnc2ccccn12	5.9%	1.9
C=C(C)C(O)/C=C/c1cccc(OC)c1 (stereo not given)	19.7%	-0.9[11.7 µM]
CCCCc1nc2c(c3c1C[C@H](C)OC3)CN(S(=O)(=O)c1ccc(NC(C)=O)cc1)CC2	-0.3%	2.8[11.7 µM]
CC(C)OC(=O)[C@@H]1CC[C@H](C)[C@@H](CCC[C@@H]2C[C@@H](O)C[C@H](CC#N)O2)O1	16.1%	-0.6
Cc1ccc(S(=O)(=O)N2CCN(c3nc(C)nc4sc5c(c34)CCC(C)C5)CC2)cc1 (stereo not given)	-11.8%	2.2
Cc1cccc(O)c1	1.7%&4.0%	-5.3&1.6
CC1CC[C@]2(CO)CC[C@]3(C)C(=CCC4[C@@]5(C)CCC(O)C(C)(C)C5CC[C@@]43C)C2C1C (stereo not given in full)	2.6%	-1.6
Cc1cc(C)cc(-c2cc3c(c(-c4c(O)c(-c5cc(C)cc(C)c5)cc5c4CCCC5)c2O)CCCC3)c1	-15.1%	1.3
O=C(Cn1nc(C(=O)O)c2ccccc2c1=O)Nc1ccc2c(c1)C(=O)c1ccccc1C2=O	-2.8%	-0.1
COc1cc2c(cc1OC)C1O[C@](c3ccsc3)(C2)OC2=C1C(=O)CC(C)(C)C2	-10.2%	-2.8[11.7 µM]
CC1CCN(c2nc3ccccc3nc2C(C#N)C(=O)NC2CCCCC2)CC1 (stereo not given)	14.8%	6.0
C/C(CCN1CCc2nc(-c3ccccc3)c(-c3ccccc3)cc2C1)=N\O[C@@H](C)CN1CCCCc2nc(C)c(C)cc21	5.1%	-4.3[11.7 µM]
C[C@]12C=CC(=O)C=C1CCC1C2C(=O)C[C@]2(C)C1CC[C@]2(O)C(=O)CO (stereo not given in full)	8.5%	0.0
CC(C)(C)c1ccc(N2C[C@@H](COc3ccc(C(=O)O)cc3)CC2=O)cc1	23.2%	-0.4
CO[C@@H]1COC(=O)C/C=C\[C@H](C)[C@H](OC)COC(=O)[C@H](C)NC(=O)C/C=C\[C@H]1C	13.3%	-1.7[11.7 µM]
CC(C)[C@@H](OCc1ccccc1)[C@H](C)/C=N\O[C@@H](C)c1cn([C@@H]2COC[C@@H]2O)nn1	1.2%	1.5[11.7 µM]

# Other compounds
Compound	Sfp PPTase inh	Menin-MLL FL inh
O=C1OCC2OC(O)C(O)C(O)C2OC(=O)c2cc(O)c(O)c(O)c2-c2c(O)c(O)c3oc(=O)c4c(c(O)c(O)c5oc(=O)c2c3c54)-c2c1cc(O)c(O)c2O (stereo not given)	3.55µM*	1.2
CCC(C)C1NC(=O)C(Cc2ccc(O)cc2)NC(=O)C(N)CSSCC(C(=O)N2CCCC2C(=O)NC(CC(C)C)C(=O)NCC(N)=O)NC(=O)C(CC(N)=O)NC(=O)C(CCC(N)=O)NC1=O (stereo not given)	-4.0%&-19.5%	-2.7&-15.7
C=CC1=C[C@@H](O)C2OC2C12OCCCO2 (stereo not given in full)	0.5%	2.1[11.7 µM]
C/C(=C/CCC(C)C1CCC2(C)C3CCC4C(C)(C)C(=O)CCC4(C)C3=CCC12C)C(=O)O (stereo not given)	-4.5%	3.1
COC(=O)[C@@]1(Cc2ccccc2)[C@H]2c3cc(C(=O)N(C)C)n(Cc4cc(F)c(F)c(F)c4)c3C[C@H]2CN1C(=O)c1ccccc1	0.1%	11.0
COc1ccccc1N1CCN(C(=O)Cn2nc3n(C)c4ccccc4n3c(=O)c2=O)CC1	18.2%	1.9
CCc1oc2ccccc2c1C(=O)c1cc(I)c(O)c(I)c1	39.8µM*	1.7
O=C(NCc1ccco1)c1ccc2c(=O)n(-c3ccccc3)c(=O)n(Cc3cccc(F)c3)c2c1	-20.5%	3.7
